FEN1 inh – qHTS Assay for the Inhibitors of Human Flap endonuclease 1 (FEN1); Potency, µM (top dose mostly 114 µM), for inactives: at the top dose activity change, negative = inhibition, hits mostly inhibitors; Recombinant FEN1 flap cleavage, fluorescence, 15 min; P39748; 390,000 tested, 0.35% active; note: nearly all actives have a fitted effect of over 65% in size
Target sequence (P39748 whole entry, looked up): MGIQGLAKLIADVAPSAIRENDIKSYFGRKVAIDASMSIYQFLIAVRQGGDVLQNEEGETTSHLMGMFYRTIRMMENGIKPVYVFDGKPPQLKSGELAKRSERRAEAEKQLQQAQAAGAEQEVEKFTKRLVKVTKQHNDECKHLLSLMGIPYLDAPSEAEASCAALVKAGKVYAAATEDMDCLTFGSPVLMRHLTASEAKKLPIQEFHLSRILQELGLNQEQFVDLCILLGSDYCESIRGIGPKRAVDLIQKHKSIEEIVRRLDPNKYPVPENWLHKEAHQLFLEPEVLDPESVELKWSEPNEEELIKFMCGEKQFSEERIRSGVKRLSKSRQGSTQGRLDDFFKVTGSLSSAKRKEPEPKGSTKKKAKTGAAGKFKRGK
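Concentration–response screening of FEN1 (10 nM): 15 min compound preincubation at room temperature, reaction started with 50 nM substrate and read at 0 and 15 min. Corrected, normalized data were fitted by a four-parameter Hill equation.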
N370S GC mod – qHTS Assay for Inhibitors and Activators of N370S glucocerebrosidase as a Potential Chaperone Treatment of Gaucher Disease | Potency, µM (top dose mostly 59.4 µM), for the others: top-dose activity change, negative = inhibition, usual class: inhibitors | N370S GC spleen homogenate, 4MU-glucoside fluorescence | 330,000 tested, 0.092% active | AID 2101, 2009 | Lysosomal acid glucosylceramidase (Homo sapiens), P04062;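 note: 0% = full enzyme activity and -100% = no enzyme basal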
The depositor's hits bear a star; ? = inconclusive; / = not tested or not shown; & = joins results of further samples; [ ] = another dose, or the depositor's remark. Calls come from the whole dose curve; as a rule, active = well fitted curve in the direction sought with a large enough effect; inconclusive = small, poorly fitted or top-dose-only effect, or another doubt; inactive = no such curve, though single readings can be large; an effect the other way counts as inactive or inconclusive. Unless noted, % is set by controls: 0 for no effect and ±100 for the full control effect; potency is the fitted concentration of half-maximal effect. Not all compounds are listed; most or all hits stand in other tables.

SMILES	FEN1 inh	N370S GC mod
O=C(CSc1ncc2c(n1)-c1ccc(Cl)cc1N(Cc1ccccc1)S2(=O)=O)Nc1ccccc1C(F)(F)F	1%	/
CCCCC(=O)NC(=S)NNC(=O)CC	-12%	13%
c1ccc(OCc2nnc3sc(-c4cccs4)nn23)cc1	-14%	8%
c1ccc(OCc2nn3c(-c4cccnc4)nnc3s2)cc1	-7%	-28%
CCOC(=O)C1C(c2ccc([N+](=O)[O-])cc2)C2C(=O)NN=C2CC1(C)O (stereo not given)	-7%	-4%
COc1cc(/C=C/C(=O)NNc2c(F)c(F)cc(F)c2F)ccc1OC(F)F	0%	-7%
Cc1nc(C)c(C(=O)N/N=C/c2cn(C)c3ccccc23)s1	0%	14%
COc1ccc(C2CC(=O)C=C(O)C2)cc1 (stereo not given)	-7%	-2%
CC(C)(C)C(=O)COC(=O)c1cccc(NC(=O)c2ccco2)c1	-8%	17%
O=c1cc(CO)occ1O	/	-4%
Cn1c(SCC(=O)NCC2CCCO2)nnc1-c1cccc(NC(=O)c2ccccc2F)c1 (stereo not given)	-3%	7%
Cc1cc(C[n+]2ncsc2N)c2ncccc2c1	-5%	-8%
CCc1cccc(NC(=O)CCc2c(C)nc3c(-c4ccccc4)c(C)nn3c2C)c1	-17%	/
CC1(c2ccccc2)NC(=O)N(CC(=O)N(c2ccccc2)C2CCS(=O)(=O)C2)C1=O (stereo not given)	10%	/
CC[n+]1ccc(C)c2cc(S(=O)C(F)(F)F)ccc21 (stereo not given)	-5%	-5%
Cc1ccc(NCCC(=O)c2ccc(Cl)cc2)cc1C	-2%	-14%
C=CC[C@@H](CC(=O)N[C@@H](CO)Cc1ccccc1)C(=O)NC[C@H](OC(=O)[C@@H](CC=C)Cc1ccc(F)cc1)c1ccccc1	2%	/
Cc1c(C(=O)O)cccc1-n1c(C)cc(C=O)c1C	-12%	5%
COc1ccc(CC(=O)OCC(=O)NCC2CCCO2)cc1OC (stereo not given)	1%	/
O=c1c(Br)c(N2CCOCC2)cnn1-c1ccccc1	-4%	5%
COc1ccc(-n2cc(CN(C)Cc3n[nH]c(=O)[nH]3)c(-c3cccc(F)c3)n2)cc1	11%	-13%
COc1ccc(CN2C(=O)c3ccccc3C2OC)cc1 (stereo not given)	21%	-3%
COc1ccc(N2CCN(C(=O)Cn3nnc(-c4ccccc4N)n3)CC2)cc1	-3%	5%
CCOC(=O)C1CCN(c2c(C(=O)c3ccc(C)cc3)cnc3ccc(F)cc23)CC1	-3%	/
CCCCNC(=O)C1CCCN(c2nnc(C)c3c(C)n(-c4ccc(Cl)cc4)nc23)C1 (stereo not given)	-6%	/

Entries of single compounds, quoted from the list. Screens in order: FEN1 inh	N370S GC mod
Cn1c(SCC(=O)NCC2CCCO2)nnc1-c1cccc(NC(=O)c2ccccc2F)c1 (stereo not given) as listed: -3%	7%
O=c1c(Br)c(N2CCOCC2)cnn1-c1ccccc1 as listed: -4%	5%

Part of the list above, field by field.
c1ccc(OCc2nnc3sc(-c4cccs4)nn23)cc1
  FEN1 inh = -14%	N370S GC mod = 8%
COc1ccc(C2CC(=O)C=C(O)C2)cc1 (stereo not given)
  FEN1 inh = -7%	N370S GC mod = -2%

More records follow.
SMILES	FEN1 inh	N370S GC mod
CCC(=O)Oc1ccc(C(=O)Nc2cccc(C(=O)NC(C)(C)C)c2)cc1	-3%	-17%
Cn1c(NCc2cc(Br)ccc2O)nc2ccccc21	-20%	2%
CCCCCCCCCCCCCCCCCCOC[C@H](COP(=O)([O-])OCC[N+](C)(C)C)OC(C)=O	/	-8%&9%
CCOC(=O)c1sc(/N=C/N(C)C)nc1C	3%	7%
CC(=O)Nc1ccc(S(=O)(=O)Oc2cccc(/C=N/N=C3/NC(=O)C(CC(=O)O)S3)c2)cc1 (stereo not given)	-3%	27%
O=C(Cn1c(=O)oc2ccccc21)NCCc1ccccc1Cl	8%	-7%
COc1ccccc1CN(C)C(=O)c1ccc(S(=O)(=O)Nc2c(C)n(C)n(-c3ccccc3)c2=O)cc1	-1%	/
O=c1c(O)c(-c2ccc(O)c(O)c2)oc2ccccc12	/	-15%
O=C(COC(=O)CNC(=O)c1ccc(Br)cc1)Nc1nnc(-c2ccccc2)o1	2%	2%
Cc1ccc(Cl)cc1N1CCN(C(=O)CSc2ccsc2[N+](=O)[O-])CC1	0%	2%
COc1ccc(CCN2CC3=C(C2=O)C(c2ccccc2)NC(=O)N3C)cc1OC (stereo not given)	-9%	3%
CC(C)[C@H](NC(=O)c1ccco1)C(=O)NCc1ccccc1	8%	2%
CCC(NC(=O)Nc1nnc(C(F)(F)F)s1)(C(F)(F)F)C(F)(F)F	-16%	22%
CC(=O)Nc1ccc(S(=O)(=O)NCc2cccn2Cc2cccc(C)c2)cc1	11%	/
COc1cc2c(cc1NC(=O)CSc1nnc(COc3ccc(Cl)cc3)n1C)oc1ccccc12	-12%	9%
COc1ccc(-c2nc(CS(=O)(=O)CC(=O)NC3CCCCC3C)c(C)o2)cc1 (stereo not given)	-1%	-5%
Cc1ccc2nc3nc(NCC4CCCO4)c(C(=O)NC4CCCC4)cc3c(=O)n2c1 (stereo not given)	-5%	7%
O=C(c1ccco1)N1CCN(C(=O)c2ccc(CS(=O)c3ccc(F)cc3)o2)CC1 (stereo not given)	18%	-1%
CCOc1ccc(-n2cc(-c3ccccc3)c3c(N4CCOCC4)ncnc32)cc1	5%	11%
CCOC(=O)C(C)n1nc(/C=C/c2ccc(OC)cc2)ccc1=O (stereo not given)	-1%	3%
Cc1cc(C)nc(NC(=O)c2ccc3c(c2)OCO3)c1	/	-6%
Cc1c2ccccc2cc[n+]1CCCS(=O)(=O)[O-]	7%	-2%
O=C(Nc1ccc2c(c1)CCC2)c1cc(S(=O)(=O)N2CCN(c3ccccc3)CC2)ccc1Cl	-32%	-1%
COc1ccccc1C(=O)NCCC(=O)NNC(=O)Cn1ccc(C(F)(F)F)n1	20%	8%
N#Cc1c[nH]n2c(=O)cc(Cc3ccccc3)nc12	-12%	-9%

Reprinted from the part before: 5 entries, then new ones.
SMILES	FEN1 inh	N370S GC mod
Cc1cc(C)nc(NC(=O)c2ccc3c(c2)OCO3)c1	/	-6%
Cc1c2ccccc2cc[n+]1CCCS(=O)(=O)[O-]	7%	-2%
O=C(Nc1ccc2c(c1)CCC2)c1cc(S(=O)(=O)N2CCN(c3ccccc3)CC2)ccc1Cl	-32%	-1%
COc1ccccc1C(=O)NCCC(=O)NNC(=O)Cn1ccc(C(F)(F)F)n1	20%	8%
N#Cc1c[nH]n2c(=O)cc(Cc3ccccc3)nc12	-12%	-9%
COc1ccc(Cn2c(C(=O)O)c(CNCc3cccc(OC)c3)c3ccc(C)cc32)cc1	8%	/
CCNS(=O)(=O)c1ccc(CCC(=O)NCCC2=CCCCC2)cc1	-8%	13%
CCC(C)[C@H](NC(=O)OC(C)(C)C)C(=O)N/N=C/c1ccc2nccnc2c1 (stereo not given in full)	-2%	-2%
CCCCCn1c(CN(C)Cc2ccccc2)nc2c1c(=O)n(C)c(=O)n2C	-15%	4%
COc1cc(C(=O)NCC(=O)OCC(=O)N2CCc3ccccc32)cc(OC)c1OC	7%	9%
Cc1ccc(-n2ncc(C(=O)NCCCN3CCN(c4cccc(Cl)c4)CC3)c2-n2cccc2)cc1	-2%	/
CC1C(=O)N2CCCc3cc(NC(=O)CC(C)(C)C)cc1c32 (stereo not given)	-15%	-6%
Cc1cccc(NC(=O)c2ccc(C3SCC(=O)N3CCc3ccccc3)cc2)c1C (stereo not given)	-18%	9%
CC(=O)Nc1c(NC(=O)CC#N)[nH]c2c(c1=O)c(=O)n(C)c(=O)n2C	0%	4%
Cn1cccc1/C=C(\C#N)c1ccccc1	11%	-3%
Cc1ccc(O)c(Sc2cc(C)ccc2O)c1	-21%	0%
Cc1ccc(C)c(S(=O)(=O)N2CCN(C(=O)Cc3c(F)cccc3Cl)CC2)c1	-20%	-10%
C=C1SC(=Nc2c(C)cccc2Cl)N(C(=O)c2sc3ccccc3c2Cl)C12CCCCC2	15%	3%
COCCN(CC(=O)NCc1ccc(F)cc1)C(=O)CCC(=O)Nc1nccs1	8%	-1%
Cc1ccc(/C=C/C(O)=C2/C(=O)N(C)C3(C)CC2c2ccccc2O3)cc1 (stereo not given)	-15%	-2%
O=C1c2ccccc2NC(c2ccccn2)N1c1ccc(Cl)cc1 (stereo not given)	-6%	5%[2.35 µM]
O=C(Cn1nc(C(F)(F)F)c2c1CCCC2)Nc1ccc(Cl)cc1	-5%	/
O=C(Cc1cccs1)Nc1nnc(C2CC2)s1	21%	-9%
Cc1c(OCC(=O)NCc2cccnc2)ccc2c3c(c(=O)oc12)CCC3	7%	-8%
CN(C)c1cc(-c2ccc(Cl)cc2Cl)oc(=O)c1Cl	?	14%
CCOc1ccc2c(c1)c(=O)c(C(=O)c1ccc(CC)cc1)cn2CC(=O)Nc1ccccc1OC	-7%	/
CCOc1ccc(NS(=O)(=O)c2cc(C(=O)NCC3CCCO3)ccc2Cl)cc1 (stereo not given)	5%	-7%
CCOc1cc(C2Nc3cccc4cccc(c34)N2)ccc1O	?	-4%
CCn1c(Cc2c(C)[nH]c3ccccc23)nnc1SCC(=O)NCc1ccco1	2%	8%
CC1CCN(Cc2c(C(=O)N/N=C/c3ccc(OC(C)C)cc3)nnn2-c2nonc2N)CC1	-13%	16%
(further entries)
SMILES	FEN1 inh	N370S GC mod
COCCn1c(SCC(=O)NC2CCCC(C)C2C)nc2ccccc2c1=O (stereo not given)	0%	5%
COc1ccc(NC(=O)CN(C)C(=O)c2ccc(N3CCCC3)c([N+](=O)[O-])c2)cc1	-4%	-11%
COc1ccc(C(=O)Oc2cccc3cccnc23)cc1[N+](=O)[O-]	-6%	-5%
COc1cccc(CN2CC(C(=O)NCCCn3cccn3)CCC2=O)c1 (stereo not given)	-1%	-5%
COc1ccc(-n2c(Cc3cc(=O)[nH]c(=O)[nH]3)nnc2SCC(=O)N2CCC(C)CC2)cc1	19%	0%
CC(C)CCNCC(O)CON=C1c2ccccc2-c2ccccc21 (stereo not given)	?	-22%
C=CCn1c(C)cc(C)c(C#N)c1=O	-7%	-8%
COC(=O)c1c(-c2c(Cl)cccc2Cl)noc1NC(=O)N(C)C	4%	3%
CCOC(=O)NC1c2ccccc2Oc2ccccc21	-2%	0%
O=[N+]([O-])c1ccccc1/C=C/C=N/n1c(-c2ccc(Cl)cc2)n[nH]c1=S	?	-28%
CN(C)CCCNCCCNC(=O)/C=N/O	10%	-3%
COc1cc(-c2cc3n(C)c(C)c(CCC(=O)NC4CCCCC4)c(=O)n3n2)cc(OC)c1OC	-10%	/
O=C(NC(c1ccccc1)c1ccccc1)N1CCOCC1	9%	3%
O=C(NCCCCNC(=O)c1ccc(Br)s1)c1ccc(Br)s1	8%	9%
O=C(Nc1ccon1)c1ccc(Br)o1	10%	0%
CCOCC(=O)Nc1cc(C(=O)Nc2ccc(F)cc2)ccc1Cl	/	4%
COC(=O)CCCC1=CC2=C(c3ccccc3)C(=O)C(C)(OC(=O)C3CCCC3)C(=O)C2=CN1C1CCCCC1 (stereo not given)	-24%	-13%[12.8 µM]
COc1cc2nc(CC(C)C)n(NC(=O)c3ccccc3Br)c(=O)c2cc1OC	-2%	-1%
N#C/C(=C\c1ccc(Cl)cc1)c1n[nH]c(Cn2cncn2)n1	-2%	-10%
CCOC(=O)c1ccc(CC2S/C(=C(\C#N)C(C)=O)NC2=O)cc1 (stereo not given)	-1%	8%
Cc1ccc(NC(=S)N(CCN2CCOCC2)Cc2cc3cc4c(cc3[nH]c2=O)OCO4)cc1	7%	-2%
CCN1C(=O)C(CC(=O)Nc2c(C)cccc2C)SC1=Nc1ccc(S(N)(=O)=O)cc1 (stereo not given)	-3%	-5%
Cc1ccc(-c2csc(=S)[nH]2)cc1	-10%	-4%
Cc1ccccc1OCC(=O)OCC(=O)c1ccc[nH]1	-3%	/
C/C(=N\NC(=O)c1c(Cl)c(C)nn1C)c1ccc(NC(=O)COc2ccc(Cl)cc2C)cc1	-7%	6%
(more compounds)
SMILES	FEN1 inh	N370S GC mod
COc1ccc(NC(=S)NCCN2CCC(C)CC2)cc1Cl	-6%	2%
COc1ccc(NC(=O)C2CCCN2S(=O)(=O)c2cccc3nsnc23)c(OC)c1 (stereo not given)	4%	-28%
CC(C)N(CCC(=O)c1ccc2ccccc2c1)Cc1ccccc1	?	-3%&-10%&8%
COc1ccccc1N1CCN(/N=C/C=C/c2ccccc2[N+](=O)[O-])CC1	-1%	2%
CCCc1nnc(N2C(=O)c3cccc4cccc(c34)C2=O)s1	1%	11%
CNC(=O)C1CCN(C(=O)N2CC(C)Oc3ccc(C)cc32)CC1 (stereo not given)	6%	/
COc1ccc(NC(=O)CSc2nc3nc(C)c(Cc4ccccc4)c(C)n3n2)cc1OC	7%	/
C/C(=N\NC(=O)c1ccc(C(=O)N/N=C(\C)c2ccco2)o1)c1ccco1	-5%	1%
CCN1CCc2nc3ccccc3c(C(=O)Nc3ccc(F)cc3)c2C1	4%	-2%

Bioassay records from PubChem BioAssay.
